CapD inh: CapD enzyme inhibition. z-score (no concentration beside the values). purified CapD enzyme, fluorescence intensity read-out; hits give low values; some hits fall short of the stated cut. AID 492967. 140,000 tested, 0.23% active;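 active = z-score under -4 in either of two replicates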;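 also: stock transfer was 100 nL into about 40 µL; score is relative to mean and spread of the plate; one replicate is shown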
AID504770: E. coli YBA685 growth inhibition, screen for V. cholerae RctB inhibitors; z-score (test concentration not listed); AID 504770; E. coli YBA685 rctB-dependent plasmid, OD600 growth, 3 h; hits give low values; 130,000 tested, 0.27% active;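 active = z-score under -2 on both plates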;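 also: wells of about 30 µL received 100 nL stock; score is relative to mean and SD of the test wells; the first replicate is given; strong numbers were not always called active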
* marks the source's active call; other numbers are inactive results; . = no result given.

SMILES	CapD inh	AID504770
CCC(C)NC(=O)CSc1nc(NC2CCCCC2)c2ccccc2n1 (centres undefined)	16	.
O=[N+]([O-])c1ccc(N2N=C(c3ccccc3)CC2c2ccc(O)cc2)cc1 (centres undefined)	-2.3	.
CCn1c(C(=O)NCc2ccc(Cl)cc2)cc2oc3ccccc3c21	12	0.35
NC(=O)NCCc1cccs1	.	-0.35
O=C(Nc1ccccc1-c1nc2ccccc2o1)c1cccs1	0.09	0.6
Cc1ccc(OCc2n[nH]c(=S)n2C2CCCCC2)c2c1CCC2	0.39	0.95
COC(=O)c1sc2c(c1N(C(C)=O)C(C)=O)CSc1ccc(Cl)cc1-2	-0.24	1.1
CS(=O)(=O)N(c1ccccc1)C1CSC1	.	-1.5
COC(OC)c1ccc2cnccc2n1	-0.43	.
O=C(Nc1ccc(F)cc1F)c1sccc1Oc1ccc(F)cc1[N+](=O)[O-]	-0.61	.
COc1ccc(Nc2ccc3c(C(F)(F)F)cc(C(F)(F)F)nc3n2)cc1	-1.3	.
O=C(CSc1nc2scc(-c3ccccc3)c2c(=O)n1-c1ccccc1)c1ccco1	.	1.5
Cc1nnc2c3ccccc3nc(Nc3ccc4c(c3)OCCO4)n12	0.18	1.2
COc1ccc2oc(-c3ccc(OC)c(OC)c3)cc(=O)c2c1	20	-0.45
COc1ccc(Cn2c(=S)[nH]c3cc(C(=O)N4CCN(c5ccccc5)CC4)ccc3c2=O)cc1	-0.23	.
CC(C)C(NC(N)=O)C(=O)O (centres undefined)	.	-0.25
C/C(=N\Nc1ncc(C(F)(F)F)cc1Cl)c1cn(C)c(=O)n(C)c1=O	0.15	.
O=C(NCCc1ccccc1)C1CCC(Cn2c(SCc3cc(=O)n4ccccc4n3)nc3ccccc3c2=O)CC1 (centres undefined)	-0.3	.
CCOC(=O)C1=C(O)/C(=C/c2ccc(OC)cc2)SC1=Nc1ccc(Cl)cc1	-0.84	.
CCc1cccc(CC)c1NC(N)=S	0.46	.
COCCNC(=O)c1nnc(Cc2ccc(OC)c(OC)c2)o1	-0.17	-0.1
CCn1c(=O)n(-c2ccccc2)c(=O)c2c3c(sc21)CN(C(C)=O)CC3	2.4	-0.4
COC(=O)c1cccc2c(N=O)c(O)[nH]c12	0.53	1.2
C=CCSc1nc(Oc2ccccc2C(=O)OC)c2sccc2n1	0.16	.
O=c1cnc2ccccc2[nH]1	32	-0.05
CCCCN(CC)C(=O)Cn1ncc2c([nH]c3ccc(C)cc32)c1=O	8.5	0.55
CCCNS(=O)(=O)c1ccc(NC(=O)COc2ccccc2)cc1	-0.095	1.7
CCS/C(=C(\C#N)C(N)=O)c1ccc(-c2ccccc2)[nH]1	.	-0.85
O=S(=O)(c1ccccc1)N(CC(O)CN(C1CCCCC1)C1CCCCC1)c1ccccc1 (centres undefined)	-0.63	.
CCOC(=O)C1=CN(c2cc(C)ccc2C)C=C(C(=O)OCC)C1c1cc(OC)c(OC)c(OC)c1	6.2	.
N=c1n(CCO)c2ccccc2n1CCOc1ccccc1	-0.055	-0.4
COc1cc(OC)nc(OC(Cc2ccc3ccccc3n2)c2ccccc2)n1 (centres undefined)	-0.49	.
COC(=O)C1=CN(Cc2ccc(Cl)cc2)C=C(C(=O)OC)C1c1cccc(Cl)c1	8.6	0.3
N#CCCSc1nsc(N)n1	.	-0.15
Nc1ncncc1C(=O)O	.	0
NC1=NCC(O)=C1c1nc2ccccc2s1	.	-0.85
CCN(CC)C(=O)c1cc(-c2ccc(Cl)c(Cl)c2)on1	-0.23	0.2
C=CCn1c(SCC(=O)Nc2ccccc2[N+](=O)[O-])nc2sc3c(c2c1=O)CCCC3	-0.13	.
CC(C)NC(=O)c1cnn(-c2cccc(F)c2)c1-n1cccc1	-0.23	-0.3
Cc1nc(CNS(=O)(=O)c2cccs2)cs1	62	-0.55
O=[N+]([O-])c1cc(C(F)(F)F)ccc1Oc1ccc(Cl)cc1C1CCCCC1	-0.79	.
Cc1cc(-c2onc(C)c2C(=O)NNC(=O)C2Cc3ccccc32)no1 (centres undefined)	0.27	.
Cc1c(C(c2cccc([N+](=O)[O-])c2O)c2c(C)n(C)n(-c3ccccc3)c2=O)c(=O)n(-c2ccccc2)n1C	6	.
NC(=O)c1cc(-c2ccccc2)sc1N	.	1.4
CC(C)=NNC(=O)Cc1cn2ccsc2n1	.	-1.5
COc1ccccc1NC(=O)CSc1nc2ccc(NC(=O)CSc3nncn3C)cc2s1	-0.18	.
O=C1c2ccccc2C(=O)N1CSc1nc2ccccc2[nH]1	-0.42	-0.3
NC(N)=NC(N)=Nc1cccc(C(=O)O)c1	.	1.8
NNC(=O)c1ccc(CS(=O)(=O)c2ccccc2)o1	.	1.5
O=C(Cn1ccc2cc(S(=O)(=O)N3CCCC3)ccc21)NCCc1ccccc1	0.17	0.4

3 consecutive compounds out of the list so far:
SMILES	CapD inh	AID504770
O=[N+]([O-])c1cc(C(F)(F)F)ccc1Oc1ccc(Cl)cc1C1CCCCC1	-0.79	.
Cc1cc(-c2onc(C)c2C(=O)NNC(=O)C2Cc3ccccc32)no1 (centres undefined)	0.27	.
Cc1c(C(c2cccc([N+](=O)[O-])c2O)c2c(C)n(C)n(-c3ccccc3)c2=O)c(=O)n(-c2ccccc2)n1C	6	.

Back to the main list; the 7 compounds before the break are reprinted first.
SMILES	CapD inh	AID504770
NC(=O)c1cc(-c2ccccc2)sc1N	.	1.4
CC(C)=NNC(=O)Cc1cn2ccsc2n1	.	-1.5
COc1ccccc1NC(=O)CSc1nc2ccc(NC(=O)CSc3nncn3C)cc2s1	-0.18	.
O=C1c2ccccc2C(=O)N1CSc1nc2ccccc2[nH]1	-0.42	-0.3
NC(N)=NC(N)=Nc1cccc(C(=O)O)c1	.	1.8
NNC(=O)c1ccc(CS(=O)(=O)c2ccccc2)o1	.	1.5
O=C(Cn1ccc2cc(S(=O)(=O)N3CCCC3)ccc21)NCCc1ccccc1	0.17	0.4
COc1ccc(CCN=C2SCCN2C(=O)COc2ccccc2C#N)cc1	.	-0.35
CCn1c(N)c(-c2csc(C)n2)c(=O)n(CC(=O)NCCC2=CCCCC2)c1=O	.	0.85
N#CC(C#N)(Cc1ccccc1)Cc1ccccc1	0.33	-0.1
O=C(Nc1nc2c(cc3c4c(cccc42)CC3)s1)c1ccc(S(=O)(=O)N2CCc3ccccc32)cc1	-0.68	.
Cc1oc2cc(O)ccc2c(=O)c1-c1ccc2c(c1)OCCO2	28	-0.4
O=C(Cn1cnc2sc3c(c2c1=O)CCCC3)NCC(=O)N1CCN(c2ccccc2F)CC1	-0.3	.
O=C(O)Cc1ccc(-c2ccccc2)cc1	0.1	.
Cc1cc(N2CCOCC2)nc(NCc2ccccc2)n1	0.01	.
COc1cscc1C(=O)N/N=C/c1cc2ccccc2o1	2.3	.
O=C1NC(=S)NC(=O)C1=Cc1ccc(Cl)cc1	-0.67	.
Cc1ccc(/C=C2\C(=O)ON=C2c2ccccc2)o1	-0.2	-0.75
CCOC(=O)N1CCC(NC(=O)c2ccc(C)cc2)CC1	-0.85	-0.6
CCOC(=O)N1CCN(C(=O)c2ccc(S(=O)(=O)c3ccc(C)cc3)c(NC(C)=O)c2)CC1	-0.58	-0.5
c1ccc(-c2csc3ncnc(N4CCN(Cc5ccc6c(c5)OCO6)CC4)c23)cc1	0.3	.
Cn1c(C(=O)NCCCN2CCCC2)cc2c(=O)[nH]c3ccccc3c21	0.08	-0.35
CC1=NN(c2ccccc2)C(=O)C1C(=O)c1ccccc1Br (centres undefined)	-0.61	-1
CC(C)(C)CC(C)(C)NC(=O)Nc1cccc(Cl)c1	0.36	0.65
NCC(c1ccccc1)c1ccc2c(c1)OCCO2 (centres undefined)	-0.53	-1.1
Cc1cc(C(F)(F)F)nc2sc(C(=O)c3cccc(Cl)c3)c(N)c12	0.35	-0.35
COc1ccccc1N=c1oc2ccc(Cl)cc2cc1C(N)=O	0.31	1.1
O=C(CN1CCN(Cc2ccccc2)CC1)NCCc1ccccc1	1.1	1.6
CN(CC(O)COCc1ccccc1F)C1CCCCC1 (centres undefined)	.	-0.45
CC1(C)CC(=O)c2c(Nc3ccccc3)noc2C1	.	-0.4
Cc1ccc(C(=O)N2CCN(C(=O)c3ccc(C)c(C)c3)C(C)C2)cc1C (centres undefined)	-0.45	0.05
CCC(C)NC(=O)c1ccc(CS(=O)Cc2ccc(C)cc2)o1 (centres undefined)	-0.14	-1.3
COc1ccc(/C=C2\CCc3ccccc3C2=O)cc1COc1ccc(F)cc1	-0.32	0.05
Cc1cc(=O)oc2c(/C=N\NC(=O)c3ccc(Br)cc3O)c(O)ccc12	-0.61	-0.65
COc1ccc2c(CNCC3CCCO3)c(C(=O)O)n(Cc3ccc(C)cc3)c2c1 (centres undefined)	1.6	0.5
O=C(Cn1nc(Cc2ccncc2)c2ccccc2c1=O)NCCCN1CCCCC1	0.26	0.05
COc1ccc(-c2nc3cc4c(cc3o2)Oc2ccccc2N4)cc1	0.64	0.4
O=C1NN=C(c2ccccc2)CC1c1c[nH]c2ccccc12 (centres undefined)	30	-0.9
Cc1ccc(-c2nnc(-c3cnn(-c4ccc([N+](=O)[O-])cc4)c3C(F)(F)F)o2)cc1	-0.08	.
Cc1onc(C(=O)NN)c1-c1csc(COc2ccc(Cl)cc2)n1	8.5	2.3
O=C1/C(=C\c2ccccc2)SC(=S)N1CNc1ccccc1	5.5	-0.85
COc1cccc(C2=NN(c3ccccc3)C(c3ccc(Cl)cc3)C2)c1 (centres undefined)	26	.
CC1(C)Cc2ccccc2-c2nc(-c3ccccc3)n(N)c(=O)c21	-0.49	-1.4
COC(=O)CCC1CCCCC12OCCO2 (centres undefined)	-0.02	0.05
Cc1onc(-c2ccccc2Cl)c1C(=O)N(C)C1CCCCC1	0.33	-0.4
C/C(=C/C(=O)C(F)(F)C(F)F)Nc1ccccc1	-1.2	0.55
CCc1cccc(NS(=O)(=O)c2ccc3c(c2)CCC(=O)N3)c1	-0.97	0.8

Random excerpt: 2 entries already listed.
SMILES	CapD inh	AID504770
COC(=O)CCC1CCCCC12OCCO2 (centres undefined)	-0.02	0.05
Cc1onc(-c2ccccc2Cl)c1C(=O)N(C)C1CCCCC1	0.33	-0.4

Following part
SMILES	CapD inh	AID504770
Cc1c(NC(=S)NC(=O)c2ccccc2)c(=O)n(-c2ccccc2)n1C	-0.05	-0.1
COc1cccc(C(=O)N(c2ccccc2)C2CC(C)N(C(C)=O)c3ccccc32)c1 (centres undefined)	-0.27	.
COc1ccc(C2=NN3C(C2)c2ccccc2OC3c2ccc(Cl)cc2)cc1OC (centres undefined)	1.2	.
CCOC(=O)c1cnn(-c2ccccc2)c1C	0.77	.
O=c1[nH]c(SCc2ccc(Cl)cc2Cl)nc2ccccc12	1.1	0.75
COC(=O)C1=C(C(=O)OC)SC(=C2C(=S)C(C)(C)N(C(=O)c3ccc(Cl)cc3Cl)c3cc(C)c(C)cc32)S1	-0.21	.
CC(C)c1ccc(NC(=O)c2cc(S(=O)(=O)N3CCN(Cc4ccc5c(c4)OCO5)CC3)ccc2F)cc1	-0.3	.
COc1ccc2[nH]c(=O)cc(C(=O)O)c2c1	.	0.05
CCN(CC)S(=O)(=O)c1cccc(C(=O)OCC(=O)Nc2cccc(C#N)c2)c1	.	-0.55
Cc1cccc(C(=O)Oc2ccc(C)c(C)c2)c1	0.005	-0.95

Next part, overlapping the part above by 3 compounds.
SMILES	CapD inh	AID504770
COc1ccc2[nH]c(=O)cc(C(=O)O)c2c1	.	0.05
CCN(CC)S(=O)(=O)c1cccc(C(=O)OCC(=O)Nc2cccc(C#N)c2)c1	.	-0.55
Cc1cccc(C(=O)Oc2ccc(C)c(C)c2)c1	0.005	-0.95
CCN(Cc1ccccc1)C(=O)Nc1cn(C)c(=O)c2ccccc12	52	0.1
CN1CCN(Cc2ccc(O)c3ncccc23)CC1	-4.8*	0.15
COc1cc(OC)nc(NC2OC(=O)c3ccccc32)n1 (centres undefined)	-0.73	2.1
COc1ccc(S(=O)(=O)NC(C)C)cc1-n1cnnn1	.	0.35
CCCn1c(=O)n(C)c(=O)c2c(SCC(=O)N3CCCC3=O)nc(C(C)C)nc21	.	-0.15
O=C(NCc1cccnc1)C1=CCN(S(=O)(=O)c2ccc(F)cc2)CC1	-0.53	0.5
CCCc1ccc(S(=O)(=O)N(CC)CCN(C)C)cc1	0.055	.
COC(=O)C1=C(N)OC2=C(C(=O)CCC2)C1c1cccs1 (centres undefined)	0.25	.
CCSCCOC(=O)C1=C(C)NC2=C(C(=O)CC(c3cccs3)C2)C1c1cc(OC)c(O)c([N+](=O)[O-])c1 (centres undefined)	-1.4	.
COc1cc(OC)nc(-c2ccc(Cl)nc2)n1	-0.52	.
CCOC(=O)C1=C(C)N=c2s/c(=C\c3cc(Br)c(O)c(OC)c3)c(=O)n2C1c1cccc(OC)c1 (centres undefined)	-2.6	.
CC1=C(C(=O)Nc2ccccc2)C(c2ccccn2)C(C(=O)Nc2ccccc2)=C(C)N1	45	0.05
CCc1ccccc1NS(=O)(=O)c1ccc2[nH]cc(C(=O)NCC3CCCO3)c(=O)c2c1 (centres undefined)	-1.5	0.6
CN(C)CCc1cc2c(c3c1ccc1ccccc13)OCO2	-0.43	-1
COc1ccc(C(=O)CCC(=O)Nc2ccccc2F)cc1	-0.34	0
CCOC(=O)Cn1cnc2ccccc2c1=O	3.3	-0.4
NC(=O)c1ccc(CN2CCc3ccccc3C2)cc1	-0.3	-0.6
BrCc1cn(-c2ccccc2)nc1-c1ccccc1	-0.28	2.2
Cc1nc(C)c(C(=O)O)c(-c2ccc(F)cc2)c1C(=O)O	0.14	2.8
Cc1cccc[n+]1C1[C@@H](c2cccnc2)C(C#N)=C([S-])N[C@]1(C)O (some centres undefined)	-0.69	1.9
O=C(Nc1cccc(-c2nnc(-c3ccco3)o2)c1)C(c1ccccc1)c1ccccc1	21	0.3

Compound activity: PubChem BioAssay, ICCB-Longwood Screening Facility, Harvard Medical School
